From PubChem
CSC inhib – cancer stem cell inhibition; cancer stem cell-like cells viability, luminescence; inhibition, % at 7.5 µM; 300,000 compounds, 1.1% hits;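 active = mean at 75% or more and at least half the replicates too; inconclusive = mean and replicates disagree; tested in HMLE shEcad cells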;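 note: 0% = median of negative and 100% = median of positive control wells; the first replicate is given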
Env fusion inh – blocks HIV Env-driven cell-cell fusion; HeLa-JRFL Env/CEM21 cell fusion, luciferase; inhibition, % at 12.3 µM; 360,000 compounds, 1.1% hits;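 active = mean replicate inhibition score of at least 50 and every replicate individually at or above 50; inconclusive = only one of the two criteria met; inactive = mean below 50 and not all replicates reaching 50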;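 note: 0% = plate neutral controls and 100% = maraviroc near 300 nM; one replicate is shown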
MT1-MMP act inh – inhibitors of human MT1-MMP activation | P50281 | HT1080 RFP-PRO-GFP cells, GFP/RFP ratio fluorescence, overnight; percent of plate control window, DMSO zero | 360,000 compounds, 0.061% hits | GFP/RFP ratio change, % at 20 µM | AID 651647;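 active = GFP/RFP ratio change of at least 30% with cell ATP level not reduced by more than half and red fluorescence within 50% of control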; note: strong numbers were not always called active
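Material – HT1080 RFP-PRO-GFP cells · Control set – DMSO wells and RFP-L50D-GFP cells · Incubation – overnight cell settling, then overnight compound exposure, 37 °C, 5% CO2 · Compound dosing – single-point 20 µM compound, 1% DMSO · Read-out – GFP/RFP fluorescence ratio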
PABP FP inh – PABP-poly(A) binding inhibition; P11940; PABP-poly(A) RNA binding, fluorescence polarization; inhibition, % at 35 µM; 290,000 compounds, 1% hits;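 active = 50% or more with normal probe brightness, or confirmed in later tests; inconclusive = above 50% with abnormal brightness, or retests that disagree; inactive = below 50% or failed in later tests; about a fifth of its hits are not listed in these tables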;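 note: calls also rest on retests at 20 µM and on dose response follow-up; controls were probe without protein and protein plus probe with vehicle; some compounds called inactive have numbers as strong as hits; many hits fall short of the cut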
Rce1 inh – yeast Ras-converting enzyme inhibition | yeast membranes, quenched prenylated peptide cleavage fluorescence | calls only | 290,000 compounds, 0.27% hits;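 active = fall in fluorescence gain of 50% or more versus controls, with final raw signal at or below 3038400; inconclusive = same 50% fall but final raw signal above 3038400; inactive = fall in fluorescence gain under 50%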;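 note: plate controls were neutral control wells for no effect and wells lacking membranes for full effect; tested at 10 µM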
Target sequence (Q03530 whole entry, looked up): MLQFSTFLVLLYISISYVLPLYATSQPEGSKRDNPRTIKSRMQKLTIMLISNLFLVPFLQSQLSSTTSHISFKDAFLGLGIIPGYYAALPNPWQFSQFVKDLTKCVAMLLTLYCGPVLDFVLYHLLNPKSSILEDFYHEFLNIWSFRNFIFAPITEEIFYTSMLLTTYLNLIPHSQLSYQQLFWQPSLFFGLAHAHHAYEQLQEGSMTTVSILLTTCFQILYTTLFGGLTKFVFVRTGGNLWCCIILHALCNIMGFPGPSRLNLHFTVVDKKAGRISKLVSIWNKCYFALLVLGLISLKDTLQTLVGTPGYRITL
UUG fidelity – modulators of start codon recognition fidelity in yeast. S. cerevisiae UUG-firefly luciferase reporter, luminescence/redox ratio. activity score, % at 18.7 µM. 350,000 compounds, 0.13% hits;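 active = replicate mean at a twofold rise or more, about +100% in these data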;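 note: firefly luciferase made from a UUG start codon reports start codon fidelity; reporter light over untreated wells divided by growth signal over untreated wells; some hits fall short of that in this replicate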
eIF4H FP inh – inhibitors of RNA binding by human eIF4H; Q15056; eIF4H fluorescence polarization binding assay; inhibition, % at 35 µM; 290,000 compounds, 0.94% hits;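 active = 50% or more with normal probe brightness, or confirmed in later tests; inconclusive = above 50% with abnormal brightness, or retests that disagree; inactive = below 50% or failed in later tests; about a fifth of its hits are not listed in these tables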;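 note: calls also rest on retests at 20 µM and on dose response follow-up; 0% = protein and probe with vehicle and 100% = probe without protein; strong numbers were not always called active; many hits fall short of the cut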
MT1-MMP act inh RFP – second read-out of MT1-MMP act inh, no call of its own (marks repeat the call); RFP signal change, %; measured here: RFP expression control read;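 0 = vehicle wells; hits needed this value within 50% of zero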
Numbers without * were called inactive; i = inactive; u = inconclusive; x = no result given. An excerpt; the hit share may differ from the screen's.

SMILES	CSC inhib	Env fusion inh	MT1-MMP act inh	MT1-MMP act inh RFP	PABP FP inh	Rce1 inh	UUG fidelity	eIF4H FP inh
C=C1C[C@@]23CCC4[C@@](C)(CCC[C@@]4(C)C(=O)O)C2CC[C@]1(O)C3 (stereo partly specified)	-2	7	0	3	x	x	-7	x
CCN(CC(=O)Nc1ccc(NC(C)=O)cc1)C(=O)c1cc2c(s1)CCCCC2	3	x	3	0	x	x	-3	x
O=C(CSc1ncn(-c2ccccc2)n1)Nc1nncs1	-1	11	-2	3	2	i	x	-2
c1ccc(Nc2nc3ccccc3n3nnnc23)cc1	3	-77	-3	9	u	i	7	u
COC(=O)c1ccc(/C=C2\SC(=S)N(CCCC(=O)N3CCOCC3)C2=O)cc1	x	3	4	4	x	x	-21	x
N#CCSc1ccc2nc(-c3ccccc3)cn2n1	-5	-71	1	-1	-1	i	-7	-7
CCOc1cc(Br)c(CN2C(=O)NC3(CCCCCC3)C2=O)cc1OCC	-1	10	1	-4	18	i	0	3
CC(C)CC(=O)NC(=S)N(Cc1ccccc1)Cc1ccccc1	3	-128	-4	-6	-2	i	x	3
COC(=O)c1ccc(Cl)c(NC(=O)NC2CCCCC2)c1	x	x	0	0	-12	i	-7	-1
CCN(CC)CCNC(=O)c1ccc(NC(=O)COc2ccccc2F)cc1	-4	-4	-1	3	8	i	x	11
O=C(Nc1ccc(-c2noc(CCc3ccccc3)n2)cc1)c1ccco1	10	x	-2	-12	-2	i	-32	6
S=C(Nc1nc2c(s1)CCCC2)NC1CC1	11	-55	3	-3	-2	i	-14	-8
Cc1nnsc1-c1onc(C)c1C(=O)O/N=C/c1ccc(Cl)cc1	6	-35	-3	1	11	i	x	-12
Cc1ccc2c(Cn3ccnc3)cc(=O)oc2c1C	-11	-6	-3	-1	-4	i	-8	4
O=C(Cc1ccccc1)Nc1ccc(NC(=O)c2cccs2)cc1	19	5	2	2	-15	i	x	-1
CC(C)CN(CC(C)C)S(=O)(=O)N1CCC(C(=O)NCc2cccs2)CC1	1	x	6	-1	-5	x	-15	0
CN(C)C(=O)CCc1ccc2c3c([nH]c2c1)[C@]1(C)[C@@H](C(=O)N2CCOCC2)C[C@H](CC(=O)NC(C)(C)C)C(=O)N1CC3	x	10	4	6	x	x	5	x
CC(NC(=O)Cn1cccc1C(=O)c1ccccc1)c1ccc2c(c1)OCCO2 (stereo unspecified)	x	3	-9	-1	-1	i	x	4
COC(=O)CCC(=O)NC(=S)Nc1cc(Cl)ccc1Cl	-10	-8	-3	0	-4	x	-15	-7
COc1cc(C(c2c(C)[nH][nH]c2=O)c2c(C)[nH][nH]c2=O)ccc1OC(=O)c1cccc([N+](=O)[O-])c1	-14	x	1	0	-4	x	x	1
COC(=O)c1c(C)cc(O)c(C)c1O	-11	x	0	6	x	i	-14	x
O=C(NCCCNC(=O)c1ccco1)c1ccc(F)cc1	0	24	0	5	0	i	-27	0
CCc1ccc(S(=O)(=O)N2CCN(C(=O)C3CCN(C(C)=O)CC3)CC2)cc1	7	-2	-2	0	15	i	6	-6
O=C(OCCOc1cccc(Cl)c1)c1ccc2ncsc2c1	0	-2	-3	-4	-2	i	14	-4
Cn1c(SCC(=O)c2ccccc2)nnc1-c1cccs1	-13	-23	0	0	4	i	-33	5

Single records, as listed above. Order of values: CSC inhib | Env fusion inh | MT1-MMP act inh | MT1-MMP act inh RFP | PABP FP inh | Rce1 inh | UUG fidelity | eIF4H FP inh
Listed for CC(C)CN(CC(C)C)S(=O)(=O)N1CCC(C(=O)NCc2cccs2)CC1 = 1 | x | 6 | -1 | -5 | x | -15 | 0
Listed for CCOc1cc(Br)c(CN2C(=O)NC3(CCCCCC3)C2=O)cc1OCC = -1 | 10 | 1 | -4 | 18 | i | 0 | 3
Listed for S=C(Nc1nc2c(s1)CCCC2)NC1CC1 = 11 | -55 | 3 | -3 | -2 | i | -14 | -8
Listed for O=C(Cc1ccccc1)Nc1ccc(NC(=O)c2cccs2)cc1 = 19 | 5 | 2 | 2 | -15 | i | x | -1
Listed for C=C1C[C@@]23CCC4[C@@](C)(CCC[C@@]4(C)C(=O)O)C2CC[C@]1(O)C3 (stereo partly specified) = -2 | 7 | 0 | 3 | x | x | -7 | x

Back to the main list, starting six compounds before the break.
SMILES	CSC inhib	Env fusion inh	MT1-MMP act inh	MT1-MMP act inh RFP	PABP FP inh	Rce1 inh	UUG fidelity	eIF4H FP inh
COc1cc(C(c2c(C)[nH][nH]c2=O)c2c(C)[nH][nH]c2=O)ccc1OC(=O)c1cccc([N+](=O)[O-])c1	-14	x	1	0	-4	x	x	1
COC(=O)c1c(C)cc(O)c(C)c1O	-11	x	0	6	x	i	-14	x
O=C(NCCCNC(=O)c1ccco1)c1ccc(F)cc1	0	24	0	5	0	i	-27	0
CCc1ccc(S(=O)(=O)N2CCN(C(=O)C3CCN(C(C)=O)CC3)CC2)cc1	7	-2	-2	0	15	i	6	-6
O=C(OCCOc1cccc(Cl)c1)c1ccc2ncsc2c1	0	-2	-3	-4	-2	i	14	-4
Cn1c(SCC(=O)c2ccccc2)nnc1-c1cccs1	-13	-23	0	0	4	i	-33	5
CCCCOc1ccc(N=Nc2ccc(N)nc2N)cn1	26	-60	12	-1	-2	i	-4	8
Cc1cc(C)c2oc(C(=O)NC3CCS(=O)(=O)C3)cc(=O)c2c1 (stereo unspecified)	-4	1	-1	-2	-5	i	-17	-10
CCn1cc(C(=O)NCCc2ccc(C)cc2)c(=O)c2cc(S(=O)(=O)N(C)C)ccc21	9	17	x	x	14	i	x	6
Cn1cccc1Cc1nnc(SCC(=O)N2CCCc3ccccc32)n1-c1ccc(F)cc1	-6	-26	5	-3	-2	i	1	-6
O=C(Oc1ccc(C(=S)N2CCCCC2)cc1)c1ccccc1F	-10	0	5	4	0	i	-14	13
Cc1c(C(=O)Nc2ccccc2)sc2nc3n(c(=O)c12)CCCCC3	29	-24	3	-5	-6	i	x	1
O=[N+]([O-])c1ccc(NCCCc2ccccc2)cc1	x	-24	3	-6	x	x	-5	x
O=C(NCC1CCCO1)Nc1ccc2c(c1)OCO2 (stereo unspecified)	-8	-26	2	6	-3	i	x	-6
CCOc1ccccc1C(=O)OCC(=O)NCCNC(=O)COC(=O)c1ccccc1OCC	-9	-29	-1	0	-2	i	-14	-1
NC(N)=NC(=S)Nc1ccc(Cl)cc1	-8	-15	-1	0	4	i	-4	-5
O=[N+]([O-])c1ccccc1OCCOc1ccccc1[N+](=O)[O-]	-6	-41	2	0	-12	i	x	3
COc1ccc(CCNC(=O)Cc2ccc(C)cc2)cc1OC	-1	-15	-1	3	-9	i	17	-22
O=C1C(c2ccc(F)cc2)N(Cc2ccc3c(c2)OCO3)C(=O)CN1C1CCCCCC1 (stereo unspecified)	x	42	x	x	0	i	-13	-2
C/C(=N\NC(=O)c1cccs1)C(C)(C)C	-5	-2	0	6	-3	i	-18	3
CC(=O)Nc1ccc(S(=O)(=O)NCC(=O)NC(C)c2ccc(S(N)(=O)=O)cc2)cc1 (stereo unspecified)	-9	-9	0	-1	1	i	-9	-8
O=S(=O)(c1cccc2cccnc12)N1CCN(c2ccccc2)CC1	-3	x	-1	-2	11	i	-6	-5
CN(Cc1ccc(Cl)cc1)C(CCc1ccccc1)C(=O)NC1CCCCC1 (stereo unspecified)	x	-10	-16	-19	x	x	3	x
CC1CCCN(c2nc3ccccc3nc2C(C#N)S(=O)(=O)c2ccccc2)C1 (stereo unspecified)	x	-67	-90	1	u	i	-16	u
CC(C)OC(=O)CN1CCN(C2c3ccccc3-c3ccccc32)CC1	-7	x	6	7	-4	i	-1	-7
O=C(NC1CCCCC1)[C@H](CSCc1ccccc1)N1Cc2ccccc2C1=O	-4	6	-13	-10	11	i	-22	3
CC(C)(C)c1nnc(NC(=O)CS(=O)(=O)Cc2ccccc2)s1	-7	1	5	4	-3	i	x	-4
O=C(Nc1ncc2c(n1)CC(c1ccc(Cl)cc1)CC2=O)c1ccco1 (stereo unspecified)	8	5	1	4	0	i	-1	-6
Cc1onc(-c2ccccc2)c1C(=O)Nc1nc(-c2cc(F)ccc2F)cs1	5	-180	4	3	-1	i	-28	-3
CC1=NC(C)(C)Cc2ccccc21	-4	-28	1	3	-4	i	x	-4
CCOC(=O)c1c(NC(=S)NC(C)=O)sc(C)c1C	21	-36	0	-1	-4	i	x	-4

2 compounds from above with just UUG fidelity, MT1-MMP act inh RFP and Rce1 inh.
mol,UUG fidelity,MT1-MMP act inh RFP,Rce1 inh
COc1cc(C(c2c(C)[nH][nH]c2=O)c2c(C)[nH][nH]c2=O)ccc1OC(=O)c1cccc([N+](=O)[O-])c1,x,0,x
COC(=O)c1c(C)cc(O)c(C)c1O,-14,6,i

Next part
SMILES	CSC inhib	Env fusion inh	MT1-MMP act inh	MT1-MMP act inh RFP	PABP FP inh	Rce1 inh	UUG fidelity	eIF4H FP inh
Cc1ccn(C(C)CC(=O)N2CCc3ccccc32)n1 (stereo unspecified)	-7	2	2	4	4	i	-34	-11
Oc1ccc(Cc2ncc(C(F)(F)F)cc2Cl)cc1	-9	-1	3	-2	-4	i	x	4
Cn1ccnc1C(=O)c1ccc(N)cc1	-4	1	-1	3	4	i	-17	0
CNC(=O)/C=C1\NC(C)(C)Cc2c1ccc1ccccc21	4	x	-2	-6	-1	i	-21	2
CN(CC(=O)Nc1ccc(F)c(F)c1F)C1CCCCC1	4	-17	-2	2	8	i	-14	-10
CCN(Cc1cnn(C)c1)C(=O)c1cc(COc2ccc(F)cc2F)on1	7	16	0	0	6	i	x	-3
CC1(C)C2C/C(=N\O)C(C)(/[N+]([O-])=C/c3cccc([N+](=O)[O-])c3)CC21 (stereo unspecified)	x	-9	3	1	-11	i	-11	-7
COc1ccc(CCNC(=O)CN2CCOc3ccccc32)cc1OC	x	2	2	0	-4	i	19	0
CC(C)c1ccc(/C=N/NC(=O)CN(c2cccc(Cl)c2Cl)S(C)(=O)=O)cc1	x	x	11	4	-1	i	-8	8
O=C1S/C(=C\c2ccc(N3CCOCC3)o2)C(=O)N1Cc1c(F)cccc1Cl	6	x	-132	7	8	i	3	24
Cc1ccc(NC(=O)CC2CS(=O)(=O)CC2CC(=O)Nc2ccc(C)c(C)c2)cc1C (stereo unspecified)	1	-10	1	-1	-4	i	-13	2
Cc1ccc(S(=O)(=O)N/N=C/c2ccccc2O)cc1[N+](=O)[O-]	16	-11	-2	1	-9	i	x	-1
O=C(CSc1ncnc2c1oc1ccccc12)Nc1cccc(C(F)(F)F)c1	22	11	2	-9	-3	i	-3	0
CN(C)/C=N/c1nc2nccc(-c3ccccn3)n2n1	-5	6	2	4	-11	i	x	-4
COc1ccc(OCC(O)Cn2c(Nc3cccc(C)c3)nc3c2c(=O)n(C)c(=O)n3C)cc1 (stereo unspecified)	-1	1	0	-3	-1	i	-9	0
COc1cccc(-c2cnc3c(NC=O)cc(-c4ccc(OC)cc4OC)cn23)c1	x	-124	13	6	x	x	-2	x
O=C(Cc1ccc(-n2c(=O)c3ccccc3n(CC(=O)Nc3ccc(F)cc3F)c2=O)cc1)NCc1ccco1	-3	-2	-1	0	-8	i	3	-1
Cc1nn(-c2ccccc2)c(C)c1-c1ccccc1O	-3	9	2	-5	-12	i	-9	-13
O=C(NNC(=O)C1C2C=CC(C2)C1C(=O)O)c1ccccc1 (stereo unspecified)	x	-5	3	4	7	i	4	-7
CC(Sc1nncn1C)C(=O)Nc1ccc(Cl)cn1 (stereo unspecified)	-21	x	0	4	-3	i	-24	2
O=C(Nc1ncccn1)c1cc(-c2ccc(F)cc2)nc2ccccc12	4	17	6	5	0	i	-1	4
